# Vaccinia Venus: inhibitors of vaccinia virus (Venus reporter). Vaccinia virus Venus reporter expression, fluorescence. Potency, µM (titrated, usually from 36.5 µM), inactives show at the highest dose activity change, negative = inhibition, hits mostly inhibitors. hit rate 0.46% among 330,000. AID 720580; active means well fitted inhibition curve with a large enough effect; inconclusive means small, poorly fitted or top-dose-only effect; inactive means no such curve, though single readings can be large or run the other way; tested in A549 cells; note: nearly all actives have a fitted effect of over 30% in size; inactives centre near -10
# VACV mCherry inh: inhibitors of vaccinia virus infection (mCherry reporter signal); Potency, µM (series often up to 36.5 µM), for inactives: top-dose activity change, negative = inhibition, actives largely listed as inhibitors; Vaccinia virus mCherry reporter infection, fluorescence; about a quarter of the inactives have no number; hit rate 0.63% among 310,000; active = well fitted inhibition curve with a large enough effect; inconclusive = small, poorly fitted or top-dose-only effect; inactive = no such curve, though single readings can be large or run the other way; tested in A549 cells; note: nearly all actives have a fitted effect of over 35% in size; inactives centre near -10
# Active calls of the source: *; i = inactive; ? = inconclusive; / = not tested or not shown; [ ] = another dose, or the depositor's remark. % is set by controls: 0 for no effect and ±100 for the full control effect; potency is the fitted concentration of half-maximal effect. Random draw from the library, and some 0.82% of all compounds hit somewhere here.
SMILES,Vaccinia Venus,VACV mCherry inh
Cc1nnsc1C(=O)N1CCCC(C)(C(=O)NS(=O)(=O)C2CC2)C1 (stereo unspecified),-3.4%,3.3%
CCOc1cccc(C2c3[nH]c4ccccc4c3CCN2C(=O)CCC2CCCC2)c1 (stereo unspecified),-5.5%,-2.7%
CN1C(=O)NC(c2ccc(Cl)cc2)C2=C1CC(C)(C)CC2=O (stereo unspecified),-2.8%,-18.0%
O=C(CCCC(=O)NN=Cc1ccc(Cl)cc1Cl)NN=Cc1ccc(Cl)cc1Cl,1.8%,-14.2%
O=C(/C=C/c1ccccc1)NCCc1cnc[nH]1,-6.5%,-4.8%
CCN(CC)C(CNS(=O)(=O)c1ccc(Cl)cc1)c1ccccc1 (stereo unspecified),-10.4%,i
O=C(Cc1c(F)cccc1Cl)Nc1ccccc1C(=O)N1CCOCC1,-8.0%,i
Cc1cccc(N2CCn3c2nc2c3c(=O)n(CCCc3ccccc3)c(=O)n2C)c1,-20.8%,-24.9%
Cc1ccccc1Nc1c([N+](=O)[O-])ccc2nonc12,-19.6%,?
CC12CCC(C)(c3nc4ccccc4nc31)C2(C)C,3.9%,5.0%
COC(=O)Cc1csc(/N=C/c2c(O)n(-c3cccc(C(F)(F)F)c3)c(=O)c3ccccc23)n1,10.3%,i
CN1CCN(CCCNC(=O)CN2C(=O)COc3ccccc32)CC1,-13.6%,-15.0%
Cc1ccc(N2CN(Cc3cccnc3)CNC2=S)c(C)c1,-7.5%,-12.8%
CCN1C(=O)[C@H]2[C@@H](c3ccc(C(F)(F)F)cc3)N[C@]3(CCCN(Cc4ccccc4)C3=O)[C@H]2C1=O,-16.0%,-14.9%
O=C1CC(C(=O)Nc2ccc(Cl)c(Cl)c2)S/C(=N\N=C\c2ccco2)N1 (stereo unspecified),-10.0%,-7.5%
CN[C@H]1C[C@H]2c3[nH]c4ccccc4c3CCN2C(=O)[C@H]1[C@H](C)O,-10.3%,-3.7%
CCn1cc(C(=O)N2CCCC2)c(=O)c2cc(S(=O)(=O)N(C)C)ccc21,-8.3%,-2.3%
O=Cc1cccn1-c1ncc(Br)cn1,-7.1%,i
O=C(CN(c1cccc(C(F)(F)F)c1)S(=O)(=O)c1ccc(Cl)c([N+](=O)[O-])c1)NCc1ccccc1,-12.8%,-11.8%
CCOc1ccccc1NC(=O)Cn1c(=O)n(-c2ccc(OC)cc2OC)c(=O)c2c(C)c(C(=O)N(CC)CC)sc21,-3.8%,-4.9%
CCCCC1CCC(C(=O)N2CC(=O)Nc3ccc(Cl)cc3C2c2ccc(F)cc2)CC1 (stereo unspecified),-11.6%[7.34 µM],-20.0%[7.34 µM]
COc1cccc(C(=O)Nc2nnc(S(=O)(=O)N3CCCCC3)s2)c1,-14.1%,i
COc1ccccc1C1CCN(C(=O)c2cccs2)CC1,-9.1%,-17.2%
COc1ccc(-n2ncc3c2ncn2nc(-c4ccc(Cl)cc4Cl)nc32)cc1,-10.6%,-11.8%
Nc1ccc(C(=O)NN2C(=O)[C@H](Cl)C2c2ccc(Cl)cc2)cc1 (stereo partly specified),?,?
Cc1ccccc1S(=O)(=O)NC(=O)C1(C)CCN1C(=O)C1(c2ccccc2)CC1 (stereo unspecified),-7.9%,i
COc1ccc(NC(=O)Cn2cnc3c(oc4nc5c(cc43)COC(C)(C)C5)c2=O)cc1,-19.5%,-10.8%
Cc1c(C(=O)O)sc(S(=O)(=O)N2CCN(C(=O)CCc3ccccc3)CC2)c1C(=O)O,-7.5%,-10.7%
CC(C)(C)OC(=O)C[C@@H]1C/C=C\C[C@@H](CC(=O)N(CCO)Cc2ccccc2)C(=O)N[C@H](Cc2ccccc2)COC1=O,-21.4%,-33.0%
COc1ccc(C2CC(c3ccccc3)=NN2c2ccc(S(N)(=O)=O)cc2)cc1OC (stereo unspecified),-19.6%,?
CC(=O)Oc1cccc(N2C(=O)c3ccc(C(=O)Nc4cccnc4)cc3C2=O)c1,-2.8%,-16.2%
O=C(CSc1nnc(-c2ccc(S(=O)(=O)N3CCCC3)cc2)n1CC1CCCO1)NC1CC1 (stereo unspecified),-0.1%,-10.2%
Nc1c2c(nc3sc4c(c13)CCCCC4)CCCC2,10µM*,?
CC(=O)c1ccc(N2Cc3ccccc3/C2=N\C(=O)Nc2ccccc2)cc1,-7.9%,-8.2%
CN(Cc1ccccc1)C(=O)c1ccccc1NC(=O)C1CC1,-9.9%,-0.4%
CC1CCCC(C)N1C(=O)CSc1nc(N)cc(N)n1 (stereo unspecified),1.5%,-21.2%
COc1ccc2nc(NC(=O)C(NS(=O)(=O)c3cccc4nsnc34)C(C)C)sc2c1 (stereo unspecified),-16.2%,i
O=C(c1ccc2ccccc2n1)N1CCN(S(=O)(=O)c2ccc(Cl)cc2)CC1,-12.4%,-26.2%
COc1ccc(-c2csc(NC(=O)CSc3nc(C)nc4sc(C(=O)O)c(C)c34)n2)cc1,9.0%,i
CS(=O)(=O)N(CC(=O)N1CCC(C(N)=O)CC1)c1cc(C(F)(F)F)ccc1Cl,-5.0%,i

# Some of the entries so far, with each value named:
Nc1c2c(nc3sc4c(c13)CCCCC4)CCCC2
  Vaccinia Venus: 10µM* | VACV mCherry inh: ?

CC(=O)c1ccc(N2Cc3ccccc3/C2=N\C(=O)Nc2ccccc2)cc1
  Vaccinia Venus: -7.9% | VACV mCherry inh: -8.2%

CN(Cc1ccccc1)C(=O)c1ccccc1NC(=O)C1CC1
  Vaccinia Venus: -9.9% | VACV mCherry inh: -0.4%

CC1CCCC(C)N1C(=O)CSc1nc(N)cc(N)n1 (stereo unspecified)
  Vaccinia Venus: 1.5% | VACV mCherry inh: -21.2%

# The results go on.
SMILES,Vaccinia Venus,VACV mCherry inh
Cn1c(-c2ccc(Br)cc2)cnc1NCc1cccnc1,?,-10.5%
COC(=O)Cc1c(C)c2c(O)cc(C)cc2oc1=O,-7.7%,/
Cc1cc(C)c(S(C)(=O)=O)c(Sc2ccc(Cl)cc2)n1,-20.0%,/
O=C(COC(=O)c1ccccc1Br)NCc1ccccc1,-12.1%,i
COc1ccc(NC(=O)CCS(=O)(=O)c2nc(-c3ccc4c(c3)OCO4)cc(C(F)(F)F)n2)cc1,-14.1%,i
Cc1nn2c(=O)cc(COC(=O)c3ccccc3NC(=O)COc3ccccc3C)nc2s1,-12.8%,-14.6%
COc1cc(-c2nc(C)cnc2C)cc2c1OCCN(C(=O)Cc1cc(OC)c(OC)c(OC)c1)C2,10.1%,-9.4%
CCOCCCNC(=O)C(c1ccccc1)N(Cc1cccs1)C(=O)c1ccc(NC(C)=O)cc1 (stereo unspecified),9.1%,-3.4%
CSc1ccc(CN2CCN(Cc3ccccc3)C(CCO)C2)cc1 (stereo unspecified),-19.5%,-13.1%
CCCCc1ccc(S(=O)(=O)NC(=O)C2(C)CCN2C(=O)c2cccc(F)c2)cc1 (stereo unspecified),-0.2%,15.3%
O=C(O)c1ccccc1CSc1nc2ccccc2o1,-10.7%,i
CCCc1c(-c2cccc(Br)c2)ncn1Cc1ccccc1OC,-14.1%,-11.3%
CCc1ccc(C2Sc3ccccc3NC3=C2C(=O)c2ccccc23)cc1 (stereo unspecified),-11.1%,-13.1%
CC(C)Cn1c(N)c(C(=O)COC(=O)C2CC(=O)N(c3ccc4c(c3)OCCO4)C2)c(=O)n(C)c1=O (stereo unspecified),-16.9%,i
CC(=O)c1ccc(NS(=O)(=O)c2ccc3[nH]c4c(c3c2)CCCCCC4)cc1,-16.3%,-28.3%
Cc1c(/C=C/C(=O)c2ccc(O)cc2)cnn1C,-29.0%,-22.2%
CCC1SC2=NC(C)=C(C(=O)OC)C(c3cccs3)N2C1=O (stereo unspecified),-6.0%,-6.9%
CCCn1c(N2CCN(Cc3cccc(C)c3)CC2)nc2c1c(=O)[nH]c(=O)n2C,-21.0%,-5.6%
CCN1CC(O)=C(c2nc3ccccc3s2)C1=N,?,/
CCCn1c(SCC(=O)c2c(C)[nH]c(C)c2C(=O)OCC)nc2ccccc21,-10.4%,-20.0%
Cc1nn(Cc2ccc(Cl)cc2Cl)c(C)c1NC(=O)c1ccc(COc2cc(Cl)ccc2Cl)o1,?,?
COc1ccc(CNC(=S)NC2CCCC2)cc1,-4.0%,-8.7%
COC(=O)CSc1nn(-c2ccc(F)cc2)c(=S)s1,1.4%,-12.5%
COc1ccccc1NC(=O)N(Cc1ccco1)Cc1cc2cc(C)cc(C)c2[nH]c1=O,?,-22.3%
Cc1cc(C)c(NS(=O)(=O)c2ccccc2)c(C)c1,1.3%,-12.6%
Cc1nc2ccc(S(=O)(=O)NCC(=O)N(C)Cc3ccco3)cc2s1,-13.7%,-17.5%
N#CCc1ccc(Oc2ncc(C(F)(F)F)cc2Cl)cc1,-9.2%,-2.6%
Cc1cccc(Nc2ncnc3ccccc23)c1,?,i
CCC(=O)Nc1ccc(S(=O)(=O)Nc2cccnc2)cc1,-4.9%,1.9%
Cc1ccc(S(=O)(=O)N(CCO)Cc2ccccc2)cc1,3.0%,-11.5%
O=[N+]([O-])C(=C1NCCN1)C(Cl)=C(Cl)Cl,-17.1%,-3.1%
O=C(/C=C/c1ccc(Cl)cc1)N1CCN(c2ccc(Cl)cc2[N+](=O)[O-])CC1,-17.3%,/
COc1ccc(/C=N/NS(=O)(=O)c2ccccc2)cc1OS(=O)(=O)c1ccc(C)cc1,-14.6%,/
COc1ccccc1N1CCN(S(=O)(=O)CCNC(=O)CCc2ccccc2)CC1,-19.7%,-2.5%
CC(C)(C)NC(=O)C(c1ccc(F)cc1)N(Cc1ccco1)C(=O)c1csnn1 (stereo unspecified),-0.3%,-12.7%
CCCN(C(=O)CCl)C1=CCCCC1,-10.8%,-19.1%
CC(NC(=O)c1ccccc1)c1nnc(SCC(=O)Nc2nnc(C3CC3)s2)n1C (stereo unspecified),-4.9%,-19.4%
CC12CC(NC(=O)N1c1cccc(C(=O)Nc3ncn[nH]3)c1)c1ccccc1O2 (stereo unspecified),1.9%,-3.5%
CC(C)(C)NC(=O)C(c1cc2ccccc2o1)n1c(=O)c(-c2ccccc2)nc2ccccc21 (stereo unspecified),-5.9%,i
COc1cccc(CN(C)CC(=O)Nc2cc3oc4ccccc4c3cc2OC)c1,-16.6%,i
CCOc1ccccc1CNc1nc2nc(C)cc(C)n2n1,-8.6%,-18.3%
O=C(Nc1ccc(Br)cc1)C1CCCN(S(=O)(=O)c2ccc(Br)s2)C1 (stereo unspecified),-15.6%,-19.2%
COc1ccc(CCC(=O)NCCOc2ccc(C)cc2)cc1,-21.1%,-15.5%
O=[N+]([O-])c1ccccc1/C=C/C=N/n1c(-c2ccccc2F)n[nH]c1=S,-6.9%,i
Cc1cc(C(=O)NN)n[nH]1,-2.6%,i
CC(C)Cn1c(N)c(C(=O)COC(=O)c2ccccc2Cl)c(=O)n(C)c1=O,-18.4%,-0.3%
Nc1ccc(/C=C/c2ccnc3ccccc23)c([N+](=O)[O-])c1,-3.8%,24.2%
CC1CCCN(C(=O)C2CCN(c3nc(-c4ccccc4)nc4c3CCC4)CC2)C1 (stereo unspecified),-24.2%,-5.9%
CC1CCN(S(=O)(=O)c2ccc(C(=O)OC(C)C(=O)N(C)C3CCCCC3)cc2)CC1 (stereo unspecified),1.3%,-19.9%
COC(=O)COc1ccc2c(=O)c(-c3ccccc3OC)coc2c1,-15.0%,i
# Further results:
SMILES,Vaccinia Venus,VACV mCherry inh
COC(=O)C1C(=O)N(S(=O)(=O)c2ccc([N+](=O)[O-])cc2)c2ccccc21 (stereo unspecified),5.1%,?
Cc1cc(C)n(-c2cc(N3CCN(S(=O)(=O)c4ccc(C)c(C)c4)CC3)ccc2[N+](=O)[O-])n1,-2.3%,/
Cc1ccccc1S(=O)(=O)Cc1ccc(C(=O)NCCN2CCN(Cc3ccccc3)CC2)o1,-9.3%,/
Clc1ccc(-c2nc(NCCCN3CCOCC3)c3ccccc3n2)cc1,?,-4.3%
CCCN1CCN(CCCNC(=O)CCN2C(=O)COc3ccccc32)CC1,-3.4%,-5.9%
COc1ccc(C2CC(c3ccccc3)=NN2C(=O)c2ccc(Cl)c([N+](=O)[O-])c2)cc1 (stereo unspecified),0.7%,-18.7%
CCSc1nsc(NC(=O)Nc2cccc(OC)c2)n1,?,?
O=[N+]([O-])c1ccc(N2CCOCC2)cn1,-21.6%,-12.2%
COC(=O)c1scc(-c2ccc(C)cc2)c1S(=O)(=O)Nc1cc(Cl)ccc1C,-4.0%,-10.6%
COc1cc(OC)c2c(-c3cccc(-c4ccc(N(C)C)cc4)c3)cc(=O)oc2c1,?,?
Cn1cc(/C=C/c2cc[n+](C)cc2)c2cc(Cl)ccc21,-3.3%,?
CC(C)(C)c1ccc(C(=O)NCCC(=O)NNC(=O)COc2ccccc2F)cc1,-13.2%,-19.2%
CCC(C)[C@H]1CNC(=S)N1CCc1cccc2ccccc12 (stereo partly specified),-10.3%,?
Cn1nnnc1SCc1cc(=O)[nH]c2ccccc12,-8.9%,-17.1%

# Quoted from the listing.
# For Vaccinia Venus, Cn1nnnc1SCc1cc(=O)[nH]c2ccccc12 has the entry -8.9%
# For Vaccinia Venus, Cn1cc(/C=C/c2cc[n+](C)cc2)c2cc(Cl)ccc21 has the entry -3.3%
# For Vaccinia Venus, CC(C)(C)c1ccc(C(=O)NCCC(=O)NNC(=O)COc2ccccc2F)cc1 has the entry -13.2%

# Three of the compounds above, with two lines to a compound.
# Each structure is followed by: Vaccinia Venus | VACV mCherry inh
COC(=O)C1C(=O)N(S(=O)(=O)c2ccc([N+](=O)[O-])cc2)c2ccccc21 (stereo unspecified)
→ 5.1% | ?
Cc1cc(C)n(-c2cc(N3CCN(S(=O)(=O)c4ccc(C)c(C)c4)CC3)ccc2[N+](=O)[O-])n1
→ -2.3% | /
Cc1ccccc1S(=O)(=O)Cc1ccc(C(=O)NCCN2CCN(Cc3ccccc3)CC2)o1
→ -9.3% | /

# Screens from PubChem BioAssay.
